rRNA inh HTS – inhibitors of bacterial rRNA selective over humanized ribosomes. E. coli WT GFP vs humanized-ribosome RFP mutants, fluorescence, 24 h; active compounds read low; DMSO median 0, no signal -100. GFP signal change (wild-type ribosome), % (no concentration beside the values). 1.6% of 350,000 active. AID 720706;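 active = significant combined selectivity score with lowered wild-type GFP, culture density cut under 30%, mutant RFP and density less affected; inactive = any of these conditions unmet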; note: one replicate is shown; some compounds called inactive have numbers as strong as hits
rRNA inh HTS OD600 – also measured in rRNA inh HTS; calls as there; OD600 change, %; measured here: OD600 growth;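 optical density of the mix in the first replicate; 0 = DMSO median and -100 = no signal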
rRNA inh HTS RFP – further read-out of rRNA inh HTS, marked with its call; RFP signal change, %; measured here: RFP humanized mutant strains;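 first replicate; 0 = DMSO median and -100 = no signal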
An asterisk follows results filed as active; & = joins results of further samples. This is a subset; rates above refer to the full screens.

SMILES | rRNA inh HTS | rRNA inh HTS OD600 | rRNA inh HTS RFP
CO[C@H]1CN(C)C(=O)c2ccc(NC(=O)c3cnccn3)cc2OC[C@@H](C)N(CC2CC2)C[C@H]1C | 1.3 | -0.7 | -0.5
C[C@H]1CN([C@@H](C)CO)S(=O)(=O)c2ccc(C3=CCCCC3)cc2O[C@@H]1CN(C)C(=O)C1CCCCC1 | 0.2 | -20.5 | 6.3
COc1ccc(S(=O)(=O)N(C)C[C@@H]2Oc3c(NS(C)(=O)=O)cccc3C(=O)N([C@@H](C)CO)C[C@@H]2C)cc1 | 3.2 | 3.1 | -0.3
COc1ccc(S(=O)(=O)N(C)C[C@H]2OCCCC[C@@H](C)Oc3ccc(NS(=O)(=O)c4cn(C)cn4)cc3C(=O)N([C@@H](C)CO)C[C@H]2C)cc1 | -3.6 | -3.9 | -1.0
CCC(=O)N1[C@H](CO)[C@H](c2ccc(C#CC3(O)CCCC3)cc2)[C@@H]1CNC(C)=O | 3.6 | 7.4 | 0.4
O=C(C[C@@H]1CC[C@H](NC(=O)CC2CC2)[C@H](CO)O1)NCc1ccc(Cl)cc1 | -1.9 | -6.2 | -2.6
COc1ccc(S(=O)(=O)N(C)C[C@H]2Oc3ccc(NC(=O)Nc4ccc(F)cc4)cc3CC(=O)N([C@@H](C)CO)C[C@@H]2C)cc1 | 1.9 | -1.9 | 3.3
O=C(C[C@H]1C[C@@H]2c3cc(NC(=O)c4cccnc4)ccc3O[C@@H]2[C@@H](CO)O1)NCc1cccnc1 | 1.1 | 7.5 | -2.0
C[C@H]1CN([C@@H](C)CO)S(=O)(=O)c2ccc(C#CC3CC3)cc2O[C@@H]1CN(C)C(=O)c1ccccc1 | -5.2 | -23.6 | 2.6
COc1ccc(-c2ccc3c(c2)[C@@H]2[C@@H](CCN2C(=O)C2CC2)[C@H](CO)N3C)cc1 | -6.5 | -17.9 | 7.3
O=C(c1ccncc1)N1CC(=O)N2[C@@H](CO)[C@H](c3ccc(/C=C/c4ccccc4)cc3)[C@@H]2C1 | 3.6 | 17.4 | -1.4
CO[C@H]1CC[C@@H]2CCOc3ccc(C#N)cc3C(=O)N(C)C[C@@H](OC)[C@@H](C)C(=O)N(C)C[C@H]1O2 | 2.1 | 6.1 | 0.9
CO[C@H]1CN(C)C(=O)c2cc(NC(=O)c3ccccc3)ccc2OC[C@H](C)N(C(C)=O)C[C@@H]1C | 3.2 | 6.5 | -0.3
Cc1cc(C)c2c(=O)n3c(nc2c1)C(CC(C)C)NC(=O)c1cc2ccccc2cc1-3 (stereo unspecified) | 4.0 | 6.3 | -1.5
C[C@H]1CN([C@@H](C)CO)C(=O)c2cc(C#CCN(C)C)cnc2O[C@H]1CN(C)C(=O)c1cccnc1 | 6.9 | 4.5 | 0.7
CN(C)CCCNC(=O)C[C@H]1CC[C@@H]2[C@H](COC[C@H](O)CN2Cc2cc(F)cc(F)c2)O1 | -3.8 | -1.0 | -2.3
C[C@H](CO)N1C[C@H](C)[C@@H](CN(C)C)Oc2ncc(/C=C/c3ccccc3)cc2C1=O | 6.3 | 21.9 | 0.7
Cc1ccc(S(=O)(=O)Nc2ccc3c(c2)C(=O)N([C@@H](C)CO)C[C@H](C)[C@H](CN(C)C(=O)NC(C)C)O3)cc1 | 3.2 | 14.5 | -0.6
COc1ccc(C#Cc2cnc3c(c2)C(=O)N([C@@H](C)CO)C[C@@H](C)[C@H](CN(C)C(C)=O)O3)cc1 | -5.5 | -9.9 | 0.0
COc1ccc2c3c([nH]c2c1)[C@@H](CO)N(C(=O)Nc1cccc(F)c1)CC31CCN(S(=O)(=O)c2cccc(C)c2)CC1 | -5.3 | 11.5 | -4.9

Compounds shown so far with a carbonyl joined to an NH by a bond outside any ring, in the order listed:
SMILES | rRNA inh HTS | rRNA inh HTS OD600 | rRNA inh HTS RFP
CO[C@H]1CN(C)C(=O)c2ccc(NC(=O)c3cnccn3)cc2OC[C@@H](C)N(CC2CC2)C[C@H]1C | 1.3 | -0.7 | -0.5
CCC(=O)N1[C@H](CO)[C@H](c2ccc(C#CC3(O)CCCC3)cc2)[C@@H]1CNC(C)=O | 3.6 | 7.4 | 0.4
O=C(C[C@@H]1CC[C@H](NC(=O)CC2CC2)[C@H](CO)O1)NCc1ccc(Cl)cc1 | -1.9 | -6.2 | -2.6
COc1ccc(S(=O)(=O)N(C)C[C@H]2Oc3ccc(NC(=O)Nc4ccc(F)cc4)cc3CC(=O)N([C@@H](C)CO)C[C@@H]2C)cc1 | 1.9 | -1.9 | 3.3
O=C(C[C@H]1C[C@@H]2c3cc(NC(=O)c4cccnc4)ccc3O[C@@H]2[C@@H](CO)O1)NCc1cccnc1 | 1.1 | 7.5 | -2.0
CO[C@H]1CN(C)C(=O)c2cc(NC(=O)c3ccccc3)ccc2OC[C@H](C)N(C(C)=O)C[C@@H]1C | 3.2 | 6.5 | -0.3
CN(C)CCCNC(=O)C[C@H]1CC[C@@H]2[C@H](COC[C@H](O)CN2Cc2cc(F)cc(F)c2)O1 | -3.8 | -1.0 | -2.3
Cc1ccc(S(=O)(=O)Nc2ccc3c(c2)C(=O)N([C@@H](C)CO)C[C@H](C)[C@H](CN(C)C(=O)NC(C)C)O3)cc1 | 3.2 | 14.5 | -0.6
COc1ccc2c3c([nH]c2c1)[C@@H](CO)N(C(=O)Nc1cccc(F)c1)CC31CCN(S(=O)(=O)c2cccc(C)c2)CC1 | -5.3 | 11.5 | -4.9

(list continues)
SMILES | rRNA inh HTS | rRNA inh HTS OD600 | rRNA inh HTS RFP
CC(C)Nc1nc(NCCOc2ccccc2Cl)c2sc(-c3ccccc3)cc2n1 | 11.9 | -11.5 | 12.1
Cc1noc(C)c1S(=O)(=O)Nc1ccc2c(c1)C(=O)N([C@H](C)CO)C[C@@H](C)[C@H](CN(C)Cc1ccc(C(=O)Nc3ccccc3N)cc1)O2 | -4.4 | 0.2 | 1.1
Cc1noc(C)c1NC(=O)N(C)C[C@@H]1Oc2ncc(Br)cc2C(=O)N([C@H](C)CO)C[C@@H]1C | 5.3&4.4 | 3.2&15.6 | -3.3&-3.4
CN1CCN(C(=O)C[C@H]2C[C@@H]3c4cc(NC(=O)NC5CCCCC5)ccc4O[C@@H]3[C@@H](CO)O2)CC1 | 1.5 | 4.1 | -0.7
CCCC#Cc1cnc2c(c1)C(=O)N([C@H](C)CO)C[C@H](C)[C@H](CN(C)C(=O)c1cnccn1)O2 | 4.7 | 1.4 | -0.8
CO[C@@H]1CN(C)C(=O)c2ccc(NS(C)(=O)=O)cc2OC[C@H](C)N(C(=O)CN(C)C)C[C@@H]1C | -0.3 | -5.8 | -1.5
COc1ccc2c3c([nH]c2c1)[C@@H](CO)N(Cc1cccc(F)c1)CC31CN(C(C)=O)C1 | -1.3 | 14.5 | -4.2
CCNC(=O)C1(C)CCCN(C(=O)c2ccc3ccccc3n2)C1 (stereo unspecified) | 6.0 | 9.7 | 0.1
CO[C@@H]1CN(C)C(=O)c2ccc(NC(C)=O)cc2OC[C@H](C)N(C(=O)c2ccccc2)C[C@H]1C | 0.7 | -4.9 | -0.7
COc1ccc(S(=O)(=O)N2C[C@H](O)COC[C@@H]3O[C@@H](CC(=O)NCc4ccc(Cl)c(Cl)c4)CC[C@H]32)cc1 | -9.1 | -26.9 | -1.3
CCC(=O)N(C)C[C@@H]1Oc2ncc(C#CC(C)C)cc2C(=O)N([C@H](C)CO)C[C@@H]1C | 2.8 | 6.9 | -5.8
C[C@@H]1CN([C@@H](C)CO)C(=O)c2cc(-c3cncnc3)cnc2O[C@@H]1CN(C)Cc1ccc(F)cc1 | 6.0 | 10.9 | -2.8
C[C@@H]1CN([C@H](C)CO)C(=O)c2cc(NC(=O)Cc3ccccc3)ccc2O[C@H]1CN(C)C(=O)Nc1ccc(C(F)(F)F)cc1 | -2.3 | 13.6 | -1.1
CCOC(=O)C1(C)CCCN(C(=O)c2cccnc2SC)C1 (stereo unspecified) | 7.0 | 1.8 | 0.2
CO[C@@H]1CN(C)C(=O)c2ccc(NC(=O)C3CC3)cc2OC[C@H](C)NC[C@@H]1C | 2.4 | -2.9 | -0.8
O=C(Nc1ccc(F)c(Cl)c1)c1cc(C2CCCCN2C(=O)c2ccc(Cl)cc2)on1 (stereo unspecified) | -5.7 | 0.0 | -2.2
C/C=C/c1ccc([C@H]2[C@@H](CO)N(C(C)=O)[C@H]2CNC(=O)NCCC)cc1 | 0.2 | 16.7 | 0.9
O=C(C[C@H]1CC[C@H](NC(=O)Nc2ccc(F)cc2)[C@@H](CO)O1)NCc1cccc(F)c1 | 2.1 | 1.5 | -0.8
C[C@@H]1CCCCO[C@@H](CN(C)S(C)(=O)=O)[C@@H](C)CN([C@@H](C)CO)C(=O)c2cc(NS(C)(=O)=O)ccc2O1 | -1.0 | 6.4 | -2.5
O=C(C[C@H]1C[C@@H]2c3cc(NC(=O)Nc4ccc(F)cc4)ccc3O[C@@H]2[C@H](CO)O1)NC1CCCC1 | -6.5 | -9.2 | 3.9
Cc1noc(C)c1NC(=O)Nc1ccc2c(c1)C(=O)N([C@H](C)CO)C[C@H](C)[C@@H](CN(C)C(=O)C1CCCCC1)OCCCC[C@H](C)O2 | 2.0 | -3.7 | -3.2
COc1ccc2c3c([nH]c2c1)[C@@H](CO)N(C(=O)c1ccccc1)CC31CCN(C(=O)c2cccc(F)c2)CC1 | -2.0 | -24.9 | -0.8
C[C@@H]1CN([C@@H](C)CO)S(=O)(=O)c2ccc(C#Cc3ccccc3F)cc2O[C@H]1CN(C)C | 0.5 | -30.6 | 30.1
C/C=C/c1ccc([C@@H]2[C@H](CO)N3CCCCN(S(=O)(=O)c4ccccc4)C[C@@H]23)cc1 | 9.7 | -25.7 | 3.8
COC(=O)C[C@@H]1CC[C@@H]2[C@H](COc3ccc(NS(=O)(=O)c4ccccc4Cl)cc3C(=O)N2C)O1 | -0.6 | 2.2 | -0.3
CC(C)n1nnnc1C1c2ccccc2C(=O)N1Cc1ccccc1 (stereo unspecified) | 7.4 | 10.3 | 2.4
N#Cc1cccc(OCCCN2CCC(C(O)(c3ccccc3)c3ccccc3)CC2)c1 | -43.8 | -78.6 | -12.3
C[C@H](c1ccccc1)N1C[C@H](COCc2ccccc2)Oc2cc(N3CC[C@H](N(C)C)C3)ccc2S1(=O)=O | -35.4 | -35.5 | -2.6
CCNC(=O)C[C@@H]1CC[C@H]2[C@H](COc3ccc(NC(=O)c4ccc(F)c(F)c4)cc3C(=O)N2C)O1 | -1.4 | 9.7 | -3.3
CC(C)NC(=O)N1[C@@H]2c3cccc(=O)n3C[C@@H]2[C@@H](CO)[C@@H]1C(=O)N1CCc2ccccc2C1 | 3.5 | 7.7 | -1.8
CO[C@H]1CN(C)C(=O)c2ccc(NS(=O)(=O)c3ccc(Cl)cc3)cc2OC[C@H](C)N(C)C[C@@H]1C | -1.8 | -1.0 | 1.1
CC(=O)NCCNC(=O)C1Cc2c(-c3cccc(NC(C)=O)c3)ccnc2O1 (stereo unspecified) | 12.4 | 8.0 | -2.8
CC(O)(c1cccc(F)c1)c1nc(-c2ccoc2)cs1 (stereo unspecified) | 9.2 | 10.2 | 0.7
COc1ccc(NC(=O)Nc2ccc3c(c2)C(=O)N([C@@H](C)CO)C[C@H](C)[C@H](CN(C)C(=O)Nc2ccccc2)O3)cc1 | 4.5 | 12.2 | 3.6
OC[C@@H]1[C@@H](c2ccc(-c3ccc(F)cc3)cc2)[C@@H]2CN(CCC(F)(F)F)CCCCN12 | -57.8 | -73.8 | -10.3
O=C(C[C@H]1CC[C@H](NC(=O)Cc2cccnc2)[C@H](CO)O1)Nc1ccccc1 | -0.1 | 0.4 | -0.9
CCCN1C[C@@H](C)[C@@H](OC)CN(C)C(=O)c2cc(NC(=O)Nc3ccccc3F)ccc2OC[C@@H]1C | 0.9 | -5.7 | -1.4
C[C@H](NC(=O)[C@H]1[C@H](CO)[C@H]2Cn3c(cccc3=O)[C@@H]1N2C(=O)C1CCC1)c1ccccc1 | -0.2 | -0.6 | -1.0
O=C(NCc1ccc(F)cc1F)[C@@H]1CCCN1C(=O)[C@@H]1CCCN1C(=O)c1cccc(Cl)c1 | 0.3 | 7.6 | -0.5
CC1Cc2nc(SCC(=O)N3CCCCC3)n(C)c(=O)c2S1 (stereo unspecified) | -5.3 | -7.4 | -1.1
COCC(=O)NC[C@H]1[C@H](c2ccccc2)[C@@H](CO)N1C(=O)c1ccccc1 | -1.8 | 0.0 | -1.4
CN1C(=O)c2cc(NC(=O)c3cccc(F)c3)ccc2OC[C@H]2O[C@@H](CC(=O)O)CC[C@H]21 | -2.9 | 4.5 | 0.0
COc1ccc(CN(C)C[C@@H]2Oc3ccc(NC(=O)NC4CCCCC4)cc3C(=O)N([C@H](C)CO)C[C@@H]2C)cc1 | 3.6 | -1.5 | 0.7
Cc1noc(C)c1NC(=O)N(C)C[C@H]1Oc2c(NS(=O)(=O)c3ccc(F)cc3)cccc2C(=O)N([C@H](C)CO)C[C@H]1C | 4.3 | 4.7 | -1.3
O=C([C@@H]1[C@@H](CO)[C@@H]2Cn3c(ccc(-c4ccccc4)c3=O)[C@H]1N2CCC(F)(F)F)N1CCCCC1 | 6.2 | -2.6 | 3.7
C[C@@H]1CN([C@H](C)CO)C(=O)c2cc(NS(C)(=O)=O)ccc2O[C@@H](C)CCCCO[C@@H]1CN(C)Cc1ccc2c(c1)OCO2 | -0.2 | -3.5 | -0.1
C[C@H]1CN([C@@H](C)CO)C(=O)c2cc(NC(=O)c3ccncc3)ccc2O[C@H]1CN(C)CC1CCCCC1 | -2.4 | 1.3 | -1.3
C[C@@H]1CN([C@@H](C)CO)C(=O)CCCn2nncc2CO[C@H]1CN(C)S(=O)(=O)c1ccc(F)cc1 | 8.1&1.3 | 8.8&-2.4 | -1.7&0.0
O=C(Cc1ccccn1)N1CC2(C1)[C@@H](c1ccccc1)[C@@H](CO)N2C(=O)c1ccccc1 | 6.0 | 3.9 | -2.6
CNC(=O)C[C@H]1CC[C@@H]2[C@H](COC[C@@H](O)CN2S(=O)(=O)c2ccccc2Cl)O1 | 1.2 | 14.1 | -3.6

Compound activity (PubChem)
